High-throughput results: PubChem BioAssay, Broad Institute
AF4-AF9 inh – inhibitors of AF4 peptide binding to AF9, primary screen, biochemical, AlphaScreen, biotin-AF4 peptide, FLAG-AF9, single point | Protein AF-9 (Homo sapiens), P42568 | inhibition, % at 10 µM | 350,000 tested, 0.47% active;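 active = every replicate reaching a set inhibition limit, whatever the replicate mean, cut at about 25% in these data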;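 also: 0% = plate neutral control median and 100% = total signal loss; the record names both 10 and 1 µM as test concentration; the first replicate is given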
Target sequence (P42568 whole entry, looked up): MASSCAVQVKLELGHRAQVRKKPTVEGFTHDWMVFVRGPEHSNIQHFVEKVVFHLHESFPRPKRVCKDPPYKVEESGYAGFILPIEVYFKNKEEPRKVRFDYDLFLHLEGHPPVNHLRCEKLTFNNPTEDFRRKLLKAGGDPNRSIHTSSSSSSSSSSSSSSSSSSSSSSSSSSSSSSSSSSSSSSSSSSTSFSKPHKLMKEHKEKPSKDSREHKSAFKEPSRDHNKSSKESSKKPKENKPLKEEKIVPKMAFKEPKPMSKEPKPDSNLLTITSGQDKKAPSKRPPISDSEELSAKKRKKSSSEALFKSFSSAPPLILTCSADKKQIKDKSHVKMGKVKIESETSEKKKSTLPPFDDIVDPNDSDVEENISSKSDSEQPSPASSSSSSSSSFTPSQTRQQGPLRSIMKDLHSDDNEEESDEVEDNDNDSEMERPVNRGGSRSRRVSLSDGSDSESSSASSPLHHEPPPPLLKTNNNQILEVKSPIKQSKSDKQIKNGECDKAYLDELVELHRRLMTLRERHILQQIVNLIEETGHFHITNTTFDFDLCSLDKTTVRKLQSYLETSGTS
rRNA inh HTS – reduced GFP signal of wild-type E. coli, primary screen, bacterial rRNA inhibitor project, GFP/RFP fluorescence, OD600, single point | 350,000 tested, 1.6% active | E. coli WT GFP vs humanized-ribosome RFP mutants, 24 h; hits give low values; DMSO median 0, no signal -100 | GFP signal change (wild-type ribosome), % (test concentration not listed);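 active = significant combined selectivity score with lowered wild-type GFP, culture density cut under 30%, mutant RFP and density less affected; inactive = any of these conditions unmet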; also: one replicate is shown; some compounds called inactive have numbers as strong as hits
FGF22 binding – binders of human FGF22 protein, primary screen, FGF22 synaptogenesis inhibitor project, biophysical, thermal shift, single point; calls only at 9.99 µM; Fibroblast growth factor 22 (Homo sapiens), Q9HCT0; 340,000 tested, 1.5% active; AID 651658, 2012; recombinant FGF22 thermal shift, SYPRO orange fluorescence; percent of sucrose octasulfate shift, DMSO zero;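 active = melting point raised past a set limit in the mean and every replicate; three in four hits are not shown here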
Target sequence (Q9HCT0 whole entry, looked up): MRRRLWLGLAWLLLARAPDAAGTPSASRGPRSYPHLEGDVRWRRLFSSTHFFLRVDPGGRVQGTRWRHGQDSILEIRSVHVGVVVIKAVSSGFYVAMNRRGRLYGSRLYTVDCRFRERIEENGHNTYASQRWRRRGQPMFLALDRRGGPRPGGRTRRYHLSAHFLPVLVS
rRNA inh HTS OD600 – also measured in rRNA inh HTS; calls as there; OD600 change, %; measured here: OD600 growth;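 optical density of the mix in the first replicate; 0 = DMSO median and -100 = no signal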
rRNA inh HTS RFP – recorded beside rRNA inh HTS, whose call it bears; RFP signal change, %; measured here: RFP humanized mutant strains;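 first replicate; 0 = DMSO median and -100 = no signal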
Starred values were filed as active, the others as inactive; i = inactive; x = not tested or not shown; + = active, no number; & = joins results of further samples. Some of the compounds tested (hit frequency here may not be typical).

SMILES	AF4-AF9 inh	rRNA inh HTS	rRNA inh HTS OD600	rRNA inh HTS RFP	FGF22 binding
COc1ccc(S(=O)(=O)N2C[C@@H](O)COC[C@H]3O[C@@H](CC(=O)N[C@@H]4CCN(Cc5ccccc5)C4)CC[C@@H]32)cc1	6.7	i	x	x	i
CC(C)CC#Cc1cnc2c(c1)C(=O)N([C@H](C)CO)C[C@@H](C)[C@H](CN(C)Cc1ccccc1C(=O)O)O2	0.2	-1.7	-8.7	1.0	i
CN1C(=O)c2cc(NC(=O)c3cccs3)ccc2OC[C@H]2O[C@H](CC(=O)NCCN3CCCCC3)CC[C@@H]21	-0.3	2.2	5.0	-0.6	i
CC(C)(C)c1ccc(C(=O)N2CCC2(C)C(=O)NCCC#N)cc1 (centres undefined)	-1.5	22.0	24.2	-1.9	i
Cc1ccc(S(=O)(=O)N(C)C[C@@H]2Oc3ccc(NC(=O)Nc4ccccc4)cc3C(=O)N([C@H](C)CO)C[C@H]2C)cc1	1.5	-7.3	-15.6	0.8	i
O=C(C[C@H]1CC[C@H]2[C@@H](COC[C@H](O)CN2S(=O)(=O)c2cccc(Cl)c2)O1)Nc1ccccc1	-0.6	-7.4	-19.7	-4.0	+
C[C@H](O)C#Cc1ccc2c(c1)O[C@H](CN(C)Cc1ccccn1)[C@H](C)CN([C@H](C)CO)S2(=O)=O	1.1	0.5	1.7	0.1	i
CCC(=O)Nc1ccc2c(c1)C(=O)N(C)C[C@@H](OC)[C@H](C)CN(Cc1ccc(-c3ccccn3)cc1)[C@H](C)CO2	3.8	-0.7	-7.0	3.9	i
COCC(=O)N1CC[C@@H]2[C@H]1c1cc(-c3ccc(F)cc3)ccc1N(C)[C@@H]2CO	0.8	-8.1	-14.1	0.4	i
CCCNC(=O)[C@@H]1[C@@H](CO)[C@@H]2Cn3c(ccc(-c4cccc(F)c4)c3=O)[C@@H]2N1C(=O)CC	-1.6	1.7	6.3	-1.6	i
C/C=C/c1ccc([C@@H]2[C@@H](CO)N3CCCCN(C(=O)Nc4ccc(OC)cc4)C[C@@H]23)cc1	5.6	-3.8	-16.1	18.2	i
CCc1nc2ccc(C(=O)NCCc3ccccn3)cn2c1N(C)Cc1cccs1	-4.5	-0.6	-8.4	-2.1	i
CN(C)CC#Cc1ccc([C@@H]2[C@@H](CO)N3CCCCN(S(=O)(=O)c4ccccc4)C[C@@H]23)cc1	2.3	-0.1	-4.2	0.8	i
C[C@@H]1CCCCO[C@H](CN(C)S(C)(=O)=O)[C@@H](C)CN([C@H](C)CO)C(=O)c2cc(NC(=O)c3ccncc3)ccc2O1	-15.7	3.2	9.6	-1.2	i
COc1ccc(NC(=O)Nc2ccc3c(c2)C(=O)N([C@H](C)CO)C[C@@H](C)[C@H](CN(C)C(=O)Cc2ccccc2)OCCCC[C@H](C)O3)cc1	-0.8	-0.6	-0.6	2.9	i

As a working copy, some entries already given:
SMILES	AF4-AF9 inh	rRNA inh HTS	rRNA inh HTS OD600	rRNA inh HTS RFP	FGF22 binding
COc1ccc(S(=O)(=O)N2C[C@@H](O)COC[C@H]3O[C@@H](CC(=O)N[C@@H]4CCN(Cc5ccccc5)C4)CC[C@@H]32)cc1	6.7	i	x	x	i
CC(C)CC#Cc1cnc2c(c1)C(=O)N([C@H](C)CO)C[C@@H](C)[C@H](CN(C)Cc1ccccc1C(=O)O)O2	0.2	-1.7	-8.7	1.0	i
CN1C(=O)c2cc(NC(=O)c3cccs3)ccc2OC[C@H]2O[C@H](CC(=O)NCCN3CCCCC3)CC[C@@H]21	-0.3	2.2	5.0	-0.6	i
CC(C)(C)c1ccc(C(=O)N2CCC2(C)C(=O)NCCC#N)cc1 (centres undefined)	-1.5	22.0	24.2	-1.9	i
Cc1ccc(S(=O)(=O)N(C)C[C@@H]2Oc3ccc(NC(=O)Nc4ccccc4)cc3C(=O)N([C@H](C)CO)C[C@H]2C)cc1	1.5	-7.3	-15.6	0.8	i

Just FGF22 binding, for two of the compounds above:
| Structure | FGF22 binding |
| --- | --- |
| C/C=C/c1ccc([C@@H]2[C@@H](CO)N3CCCCN(C(=O)Nc4ccc(OC)cc4)C[C@@H]23)cc1 | i |
| CCc1nc2ccc(C(=O)NCCc3ccccn3)cn2c1N(C)Cc1cccs1 | i |

Other compounds follow:
SMILES	AF4-AF9 inh	rRNA inh HTS	rRNA inh HTS OD600	rRNA inh HTS RFP	FGF22 binding
O=C(Nc1cccc(F)c1)N1CCCCN2[C@H](C1)[C@@H](c1ccc(C#CC3CC3)cc1)[C@@H]2CO	-0.1	-49.0	-66.8	-1.5	i
COCC(=O)Nc1ccc2c(c1)C(=O)N(C)C[C@@H](OC)[C@H](C)CN(C(C)=O)[C@H](C)CO2	-2.6	2.9	0.7	-2.8	i
C[C@@H]1CCCCO[C@@H](CN(C)C(=O)C2CCCCC2)[C@H](C)CN([C@@H](C)CO)C(=O)c2cc(NC(=O)CCCCCC(=O)Nc3ccccc3N)ccc2O1	-6.6	-0.8	-1.1	-2.0	i
CC(C)NC(=O)Nc1ccc2c(c1)C(=O)N([C@H](C)CO)C[C@@H](C)[C@H](CN(C)C(=O)C1CCCCC1)OCCCC[C@@H](C)O2	3.1	0.1	0.3	-0.6	i
CC(=O)N1[C@H](CO)[C@H]2c3ccccc3N(C(=O)c3ccccc3)C[C@H]21	-1.3	1.6	-0.3	-1.3	i
COc1cc(-c2coc3c(C(=O)NCc4cccc(Cl)c4)cccc23)ccc1O	0.7	-13.8	-51.8	3.3	i
COc1cccc(S(=O)(=O)N2CCCCN3[C@H](CO)[C@@H](c4ccc(-c5ccccc5)cc4)[C@@H]3C2)c1	-6.8	-0.4	-3.5	-1.2	i
C[C@H](CO)N1C[C@H](C)[C@@H](CN(C)S(=O)(=O)c2ccccc2C#N)OCc2cnnn2CCCC1=O	-1.3	1.6&0.6	6.6&1.7	0.8&0.9	i
Cc1noc(C)c1NC(=O)NCC[C@@H]1CC[C@H](NC(=O)Nc2cccc(Cl)c2)[C@@H](CO)O1	2.6	-1.9	7.5	0.8	i
CCC(=O)Nc1ccc2c(c1)OC[C@H](C)N(C(=O)Cc1cccnc1)C[C@@H](C)[C@@H](OC)CN(C)C2=O	-2.1	2.2	2.4	-2.3	i
CC(C)NC(=O)Nc1cccc2c1O[C@H](CN(C)Cc1ccc3c(c1)OCO3)[C@H](C)CN([C@@H](C)CO)C2=O	-0.8	5.1	4.7	0.4	i
O=C(C[C@@H]1CC[C@@H]2[C@H](COC[C@@H](O)CN2C(=O)Nc2ccc(Cl)cc2)O1)N1CCCCC1	0.9	-40.9	-45.6	-9.6	i
O=C(NCC[C@H]1CC[C@H](NC(=O)C2CCCCC2)[C@@H](CO)O1)c1ccc(F)cc1	-0.7	-5.3	3.1	-4.4	i
C[C@@H]1CN([C@@H](C)CO)C(=O)Cc2cc(NC(=O)c3ccncc3)ccc2O[C@@H]1CN(C)S(C)(=O)=O	-1.8	4.2	12.9	1.2	i
O=C(Cc1ccccc1)N[C@H]1C=C[C@H](CC(=O)N2CCOCC2)O[C@@H]1CO	0.7	0.2	-6.5	0.7	i
N#C[C@H]1[C@@H](c2ccccc2)[C@@H](CO)N1C(=O)Nc1cccc(F)c1	-0.8	1.4	3.0	-4.2	i
C[C@@H]1CN([C@@H](C)CO)C(=O)c2cc(NS(C)(=O)=O)ccc2O[C@H]1CN(C)S(=O)(=O)c1cn(C)cn1	-1.8	2.5	3.5	-1.0	i
CCCC(=O)Nc1ccc2c(c1)C(=O)N(C)[C@H]1CC[C@@H](CC(=O)O)O[C@@H]1CO2	-2.3	1.4	-0.2	-4.4	i
COc1c(C)cc(C(O)c2ncc(-c3ccccc3C(F)(F)F)[nH]2)cc1C (centres undefined)	-10.7	-4.8	-20.2	13.0	i
C[C@H](CO)N1C[C@H](C)[C@H](CN(C)S(=O)(=O)c2ccc(F)cc2)OCc2ccccc2-c2c(n(C)c3ccccc23)C1=O	5.9	-1.4	11.7	1.2	i
CCS(=O)(=O)N1CCC2(CC1)CN(C(=O)Nc1cccc(F)c1)[C@H](CO)c1c2c2ccc(OC)cc2n1C	1.7	-4.1	-10.1	9.3	i
C[C@H](CO)N1C[C@H](C)[C@H](CN(C)S(=O)(=O)c2cccs2)Oc2ccc(NS(=O)(=O)c3ccc(F)cc3)cc2C1=O	1.8	-4.2	-4.5	4.9	i
COCCNC(=O)C[C@H]1CC[C@H]2[C@@H](COc3ccc(NC(=O)Nc4cccc(F)c4)cc3C(=O)N2C)O1	-2.3	2.6	6.7	-0.4	i
Cc1noc(C)c1NC(=O)N(C)C[C@@H]1OCCCC[C@H](C)Oc2ccc(NC(=O)NC(C)C)cc2C(=O)N([C@H](C)CO)C[C@@H]1C	-6.9	3.2	7.4	-2.2	i
C[C@H]1CN([C@@H](C)CO)C(=O)c2cccc(NC(=O)c3ccc(-c4nccs4)cc3)c2O[C@H]1CN(C)S(=O)(=O)c1cccs1	-1.1	-2.4	13.7	1.6	i
CO[C@@H]1CN(C)C(=O)c2cc(NC(C)=O)ccc2OC[C@H](C)N(C(=O)C2CCOCC2)C[C@H]1C	-3.2	1.4	2.9	-0.9	i
COc1cccc(-c2ccc([C@@H]3[C@@H](CO)N(C(=O)C4CC4)C34CN(C(C)=O)C4)cc2)c1	-0.6	-0.9	5.1	2.8	i
CO[C@H]1CN(C)C(=O)c2cc(NS(C)(=O)=O)ccc2OC[C@H](C)N(C(=O)CN(C)C)C[C@H]1C	-1.0	1.3	0.0	1.5	i
Cc1cccc(CNC(=O)C2CCC(=O)N(CC3CCCCC3)C2)c1 (centres undefined)	-1.3	3.7	-0.1	-1.7	i
CCCC(=O)Nc1ccc2c(c1)OC[C@H](C)N(C(=O)CC)C[C@@H](C)[C@@H](OC)CN(C)C2=O	-0.7	-2.6	-3.0	-0.8	i
C[C@H](CO)N1C[C@H](C)[C@@H](CN(C)S(=O)(=O)c2cn(C)cn2)OCCCC[C@H](C)Oc2ccc(NS(C)(=O)=O)cc2C1=O	-11.4	-1.1	-2.3	-1.2	i
C[C@H]1CN([C@@H](C)CO)C(=O)c2cc(C#Cc3ccc(F)cc3)cnc2O[C@@H]1CN(C)S(C)(=O)=O	-0.4	-1.6	-2.2	-0.2	i
C[C@@H]1CN([C@H](C)CO)C(=O)c2cc(Br)cnc2O[C@@H]1CN(C)C(=O)Cc1ccccc1	-3.2&-1.4	2.3&2.1	9.9&6.1	-2.6&-0.7	i
CCNC(=O)C1(C)CCN1C(=O)CCc1cccc(Cl)c1 (centres undefined)	-46.0	2.7	0.9	0.2	i
CCOC(=O)[C@]12CCC=C1N(Cc1cccc3ccccc13)C(=O)[C@H](CC(=O)NCCCOC)C2	-1.0	-20.0	-19.7	5.6	i
CO[C@H]1CN(C)C(=O)c2ccc(NC(C)=O)cc2OC[C@@H](C)N(Cc2ccccc2F)C[C@@H]1C	3.6	-6.3	-8.7	3.5	i
O=C(NCc1cccc(C(F)(F)F)c1)c1ccc2sc(COCCO)nc2c1	-2.1	-2.0	0.5	-0.6	i
C[C@H]1CN([C@@H](C)CO)S(=O)(=O)c2ccc(C#CC3(O)CCCC3)cc2O[C@H]1CN(C)C(=O)c1ccccc1	2.8	1.1	-12.3	1.6	i
CN(C)CC(=O)N1[C@H](CO)[C@H](c2ccc(C#CC3CC3)cc2)[C@@H]1C#N	2.3	7.8	19.1	-5.4	i
Cc1cc2c(c(=O)o1)[C@@]1(C(=O)N(C)c3ccccc31)C1=C(CC3(CCCCC3)OC1=O)O2	-1.5	8.4	5.0	-0.4	i
C[C@@H]1CN([C@H](C)CO)C(=O)c2cccc(NS(=O)(=O)c3ccc(F)cc3)c2O[C@H]1CN(C)Cc1ccc(C(=O)Nc2ccccc2N)cc1	-1.2	3.3	1.5	-1.3	i
O=C(c1cccc(Cl)c1)N1CCC(=O)N([C@H](COCc2ccccc2)Cc2ccccc2)CC1	-6.1	-30.7	-53.5	-9.4	i
CCNC(=O)[C@@H]1[C@@H](CO)[C@@H]2Cn3c(ccc(/C=C/c4ccccc4)c3=O)[C@H]1N2CC	-2.4	2.1	-0.2	-2.9	i
COc1ccc(S(=O)(=O)N[C@@H]2CC[C@@H](CCNC(=O)CN3CCOCC3)O[C@H]2CO)cc1	-2.4	4.3	10.1	0.3	i
C=CCNc1ncnc2c1ncn2[C@H]1CN(Cc2cccs2)C[C@@H](CO)O1	-4.4	8.5	10.6	1.7	i
C[C@@H]1CCCCO[C@H](CN(C)C(=O)Nc2ccc(C(F)(F)F)cc2)[C@@H](C)CN([C@H](C)CO)C(=O)c2cc(NC(=O)Nc3ccccc3)ccc2O1	-3.4	0.1	8.7	-0.3	i
CCCN1[C@@H]2c3ccc(-c4cccc(C(=O)N(C)C)c4)c(=O)n3C[C@@H]2[C@@H](CO)[C@@H]1C(=O)NCCOC	-0.9	0.3	3.7	-0.6	i
Cc1cccc(S(=O)(=O)NC(=O)C2(C)CCN2C(=O)Cc2cc(F)ccc2F)c1 (centres undefined)	-3.7	1.7	13.2	-1.2	i
